# High-throughput results as filed in PubChem.
# miR-21 reporter: qHTS Assay for Modulators of miRNAs and/orActivators of miR-21 | HeLa miR-21 FLuc reporter, luciferase, 48 h | AID 2288, 2010 | 340,000 tested, under 10 active | Potency, µM (doses to about 38.3 µM), inactives show at the top dose reporter change, positive = more light; active = well fitted rising curve with a large enough effect; inconclusive = small, poorly fitted or top-dose-only effect; inactive = no such curve, though single readings can be large or run the other way;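 also: % of control where 0% means no effect; miR-21 action dims this reporter so a rising signal means less miR-21 action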
#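 Using DMEM plus 10% FBS, HeLa miR-21-FLuc cells are incubated with test compounds (final up to about 40uM) for 48 hours; firefly luciferase signal is then imaged following reagent-mediated lysis.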
# GLA inh pH 4.5: qHTS Assay for Inhibitors of Human alpha-Galactosidase at pH 4.5; purified enzyme, 4-MU-alpha-Gal fluorescence, pH 4.5; activity change, negative = inhibition, % at 105 µM; 230,000 tested, under 10 active; inconclusive = small, poorly fitted or top-dose-only inhibition, or a rising curve; inactive = flat fitted curve, though single readings scatter; no compound was filed as active;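 also: 0% = full activity with enzyme and -100% = basal without enzyme; dose as in the result columns while the protocol names 77 µM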
# Rango-impB inh: qHTS Assay for Inhibitors of Rango (Ran-regulated importin-beta cargo) - Importin beta complex formation | Importin subunit beta-1 (Homo sapiens), Q14974 | 340,000 tested, 0.031% active | Rango CFP/YFP FRET sensor + importin beta, 45 min | Potency, µM (doses to about 92.2 µM), for inactives: at the highest dose inhibition of complex formation; active = rising FRET ratio curve, often small or poorly fitted; inconclusive = mostly compound fluorescence or quenching in the first reads; inactive = flat curves in all reads;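 also: potency is read from the fitted curve at half-maximal effect; 0% = DMSO wells and 100% = buffer wells lacking importin beta; nearly all actives have a fitted effect of over 15% in size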
# Target sequence (Q14974 whole entry, looked up): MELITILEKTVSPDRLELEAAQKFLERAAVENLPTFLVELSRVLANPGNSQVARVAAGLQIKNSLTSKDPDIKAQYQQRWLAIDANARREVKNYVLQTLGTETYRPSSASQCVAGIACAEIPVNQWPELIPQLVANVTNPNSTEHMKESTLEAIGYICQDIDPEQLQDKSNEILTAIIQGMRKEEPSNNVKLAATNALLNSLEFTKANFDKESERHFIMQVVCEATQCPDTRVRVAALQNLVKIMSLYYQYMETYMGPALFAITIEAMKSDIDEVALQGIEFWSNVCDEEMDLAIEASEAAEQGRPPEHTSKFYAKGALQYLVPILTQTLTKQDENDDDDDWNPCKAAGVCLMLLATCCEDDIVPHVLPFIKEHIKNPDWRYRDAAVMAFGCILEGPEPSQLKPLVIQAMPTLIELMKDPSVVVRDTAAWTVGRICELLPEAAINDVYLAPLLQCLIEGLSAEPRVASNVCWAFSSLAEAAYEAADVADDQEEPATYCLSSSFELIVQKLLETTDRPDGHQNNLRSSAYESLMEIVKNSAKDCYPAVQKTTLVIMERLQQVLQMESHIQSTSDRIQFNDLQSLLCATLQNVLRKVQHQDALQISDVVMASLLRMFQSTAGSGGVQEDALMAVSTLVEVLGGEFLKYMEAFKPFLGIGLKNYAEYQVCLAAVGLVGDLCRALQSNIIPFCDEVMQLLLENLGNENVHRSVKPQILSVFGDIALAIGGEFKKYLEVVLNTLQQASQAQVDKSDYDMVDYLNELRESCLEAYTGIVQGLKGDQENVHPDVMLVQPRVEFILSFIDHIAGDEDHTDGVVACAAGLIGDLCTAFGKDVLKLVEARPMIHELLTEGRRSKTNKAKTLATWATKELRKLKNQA
#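 FRET biosensor (snurportin 1 IBB flanked by EYFP and cerulean), 50 nM, with compound 5 min, then 0.125 microM importin beta in PBS, 1 mM DTT, 0.02% Tween-20, 0.1% BSA. CFP/YFP ratio read after 45 min at room temperature; pre-read flags interference.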
# Rango release inh: qHTS Assay for Inhibitors of RanGTP induced Rango (Ran-regulated importin-beta cargo) - Importin beta complex dissociation; Biochemical FRET Rango-importin beta, RanGTP-induced dissociation; 340,000 tested, 0.071% active; AID 540253, 2011; Potency, µM (highest dose often 46.1 µM), for the others: at the top dose activity change, negative = inhibition; active means falling FRET ratio curve, often poorly fitted, with flat reads before Ran was added; inconclusive means other falling curves, or compound fluorescence or quenching; inactive means flat or rising ratio curve;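 also: potency is read from the fitted curve at half-maximal effect; % of control where 0% means no effect; nearly all actives have a fitted effect of over 45% in size; -100% = wells without RanGTP and RCC1; the record marks most hits as doubtful in a second field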
#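 Two FRET readings bracket the reaction: one 5 min after compound meets Rango–importin beta, another 45 min after RanGTP-RCC1 (0.6 uM Ran, 0.2 uM RCC1, 2 mM GTP) is added. Only the second defines inhibition.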
# * marks the source's active call; other numbers are inactive results; ? = inconclusive; . = no result given; & = joins results of further samples.
miR-21 reporter	GLA inh pH 4.5	Rango-impB inh	Rango release inh	SMILES
-3.7%	4.5	.	.	CCCOc1ccc(C(=O)CCC(=O)OCC(=O)Nc2cc(C)on2)cc1
-0.2%&-1.9%	.	-3.8%	2.5%	Cc1ccc(C)c(N2CCN(C(=O)c3cc(S(=O)(=O)N4CCCC4)cn3C)CC2)c1
-21.2%	-5.8	1.3%	1.1%	COc1cc2c(cc1NC(=O)CSc1ccccn1)oc1ccccc12
12.2%	.	0.3%	4.2%	CCN1CCN(S(=O)(=O)c2ccc(Cl)c(C(=O)N(C)Cc3ccc(Cl)cc3Cl)c2)CC1
-10.1%	.	1.8%	-15.0%	O=C(NCCN1CCCCC1)c1cc(COc2c(F)cccc2F)on1
0.2%	-9.5	?	-21.3%	CN(C)S(=O)(=O)c1ccc(N2CCCC2)c(C(=O)Nc2nc3c(ccc4ccccc43)s2)c1
0.0%	.	-5.9%	-2.5%	COc1ccc(-n2nnnc2-c2ccc(S(C)(=O)=O)cc2Cl)cc1
-0.8%	4.4	-0.4%	-9.4%	COC(=O)c1cc(=O)n(-c2c(Cl)cc(C(F)(F)F)cc2Cl)[nH]1
.	.	0.7%	-0.7%	Cc1nnc(SCC(=O)c2c(N)n(C3CC3)c(=O)[nH]c2=O)n1-c1ccccc1
-11.8%	5.9	.	.	COCc1cc(=O)[nH]c(Nc2nc(C)c3cc(OC)ccc3n2)n1
-22.7%	2.8	-0.4%	7.8%	Cc1ccc(S(=O)(=O)/N=C2/NC(=O)/C(=C/c3ccccn3)S2)cc1
.	.	-0.6%	-3.8%	C=CC[C@@H](CC(=O)OC(C)(C)C)C(=O)OC[C@H]1CCCN1C(=O)[C@@H](CC=C)CC(=O)N(CCO)Cc1ccccc1
-1.6%	1.3	-0.8%	9.0%	COc1ccc(CCNC(=O)CN2CCN(S(=O)(=O)c3ccc(Cl)cc3)CC2)cc1OC
0.7%	3.4	-1.0%	1.1%	COC(=O)C1=C(C)N(C)C(=S)N(C)C1c1cccc(Br)c1 (centres undefined)
.	.	0.1%	-3.4%	Cc1ccc(S(=O)(=O)N2CCN(C(=O)CSc3ncn[nH]3)CC2)cc1
-0.1%	.	-0.7%	21.2%	N#Cc1cc2ccccc2n2nnnc12
-0.3%	-3.7	-1.4%	-1.5%	CCOc1cc(N2CCOCC2)c(OCC)cc1NC(=O)CN1CCCC(C)C1 (centres undefined)
-31.0%	-14.9	5.7%	-24.2%	COc1ccc(NC(=O)c2csc3c2CCCCC3)c(OC)c1
4.1%	-1.8	2.1%	1.1%	COc1ccc(CNc2oc(Cc3cccc4ccccc34)nc2C#N)cc1
17.9%	-12.6	6.3%	12.2%	CCOc1cccc(CN2CCN(c3cccc(C(F)(F)F)c3)CC2)c1O
-2.9%	.	0.9%	-9.0%	CN(Cc1cnccn1)C(=O)C1CCC(=O)N(CCc2ccccc2)C1 (centres undefined)
-7.0%	0.7	-1.0%	-12.2%	COc1ccc(N(CC(=O)NN=C2CCCC2)S(=O)(=O)c2ccccc2)cc1Cl
22.5%	12.9	-1.6%	4.5%	CCCC(C)C(=O)Nc1nc(C)c(-c2csc(Nc3ccc(Cl)cc3)n2)s1 (centres undefined)
-29.6%	-11.3	0.4%	-20.8%	O=C(Nc1ccccn1)c1ccc(NC(=O)c2ccco2)cc1
0.6%	.	-3.9%	0.1%	Cc1nc2ccccc2c(=O)n1/N=C/c1ccc(O)c(O)c1O
-11.3%	-3.9	-0.2%	1.9%	Cc1ccc(Cl)c(OCC(=O)Nc2sc(C)c(C)c2C#N)c1
-5.4%	-4.5	0.4%	-2.1%	O=C(NC1CCN(Cc2ccccc2)CC1)c1cc(-c2ccccn2)nc2ccccc12
9.8%	.	0.0%	0.9%	CC(C)c1ccc(NC(=O)CNS(=O)(=O)c2ccc(F)cc2)cc1
-26.4%	.	3.4%	-1.8%	COc1ccc(/C=C2\SC(N3CCCCC3)=NC2=O)cc1OC
-5.6%	.	-1.2%	0.0%	O=C(Nn1cnnc1)c1ccc(Cl)cc1
-9.3%	-6.3	2.8%	-0.6%	Cc1ccc(C)c(-n2nnnc2SCC(=O)c2ccc3c(c2)NC(=O)CO3)c1
-19.3%	-0.9	?	-10.4%	CC1(C)Cc2c(C#N)c(N)sc(=S)c2CO1
-2.8%	-3.2	-0.4%	-1.7%	COCCNC(=O)c1ccccc1NC(=O)c1cccc([N+](=O)[O-])c1C
1.3%	.	0.2%	-12.4%	CCCNC(=O)Cn1c(=O)n(CC(=O)N2CCCCC2)c(=O)c2sccc21
1.5%	2.2	8.9%	14.6%	CC(SC1CCCC1)C(=O)Nc1ccnn1C(C)C (centres undefined)
-3.4%	.	1.5%	-0.8%	COc1ccc(S(=O)(=O)N2c3ccccc3NC(=O)CC2C)cc1 (centres undefined)
5.7%	-1.8	-0.3%	9.7%	Cc1nn(C(C)(C)C)c(NC(=O)c2ccc(Cl)cc2Cl)c1Br
-4.0%	-4.8	5.5%	-7.6%	NC1(N)OC(CN2C(=O)c3ccccc3C2=O)CS1 (centres undefined)
-2.6%	-1.5	1.4%	-17.7%	O=C1CSc2nc3ccccc3n21
-7.8%	3.2	0.5%	9.3%	CCn1c(SCC(=O)Nc2ncc(C(F)(F)F)cc2Cl)nnc1-c1cccc(C)c1

# One compound at a time, as listed above.
# `Cc1nc2ccccc2c(=O)n1/N=C/c1ccc(O)c(O)c1O` in the list: miR-21 reporter: 0.6%; GLA inh pH 4.5: .; Rango-impB inh: -3.9%; Rango release inh: 0.1%
# `CN(Cc1cnccn1)C(=O)C1CCC(=O)N(CCc2ccccc2)C1` (centres undefined) in the list: miR-21 reporter: -2.9%; GLA inh pH 4.5: .; Rango-impB inh: 0.9%; Rango release inh: -9.0%

# The list continues.
miR-21 reporter	GLA inh pH 4.5	Rango-impB inh	Rango release inh	SMILES
-63.9%	3.4	?	?	COc1ccnc(Oc2ccc3ccccc3c2)c1C#N
0.0%	.	-0.4%	-16.1%	Cc1cc(C)n(CC(=O)NNC(=O)C2CC(=O)N(Cc3ccccc3Cl)C2)n1 (centres undefined)
-1.8%	.	0.2%	3.5%	CC(CN1CCCC1)OC(=O)Cc1ccc(Cl)cc1 (centres undefined)
-3.9%	7.7	?	-16.6%	Cc1ccn2cc(CNC(=O)c3ccc(Br)o3)nc2c1
-16.1%	-3.8	-3.2%	-22.5%	CCSc1nnc(NC(=O)C2Cc3ccccc3CN2C(=O)c2ccco2)s1 (centres undefined)
-21.6%	5.6	?	2.7%	O=C(Nc1ccc(-c2nc3cccnc3s2)cc1)c1ccco1
0.0%	.	5.2%	-6.2%	CC1CCN(C(=O)Cn2c3ccc(F)cc3c3nc4n(c(=O)c32)CCCS4)CC1
-14.3%	-0.1	-0.8%	5.0%	CCc1ccc2[nH]c3nc(SCC(=O)NNC(=O)c4ccc(C(C)(C)C)cc4)nnc3c2c1
.	.	2.8%	-18.1%	Cc1ccc(S(=O)(=O)N2CCN(C(=O)COC(=O)CNC(=O)c3ccccc3F)CC2)c(C)c1
-2.5%	3.0	-1.3%	-0.1%	CN(C(=S)NC1=CCS(=O)(=O)C1)C1CCCCC1
-0.7%	-0.6	0.0%	0.1%	CC/C(=N\NC(=S)Nc1cc(C)ccc1C)c1ccc(OC(F)F)cc1
-2.4%	.	-0.6%	0.3%	COc1cccc(CN2CCNC(=O)C2CC(=O)NCCCC2CCCC2)c1OC (centres undefined)
-65.7%	.	2.4%	-15.8%	O=C(CCN1C(=O)S/C(=C\C=C\c2ccccc2)C1=O)Nc1ccc(O)cc1
2.7%	.	?	0.8%	COC(=O)COc1ccc(/C=C2\SC(=O)N(CC(=O)Nc3ccccc3F)C2=O)cc1
-14.8%	-2.3	-0.8%	-17.3%	Cc1ccc(/C(COc2ccccc2O)=N\O)cc1
-10.3%	-11.6	-1.8%	-3.8%	O=C(Cc1cccs1)NNC(=O)C12CC3CC(CC(C3)C1)C2
1.4%	-9.9	3.4%	-4.7%	COc1ccc(N(C(=O)c2ccco2)S(=O)(=O)c2ccc(F)cc2)cc1
-6.3%	6.1	-0.4%	1.8%	O=C(N/N=C/c1ccccc1)c1ccc(OCc2ccccc2)cc1
-27.9%	-22.7	?	?	Cc1ccccc1CNC(=O)Nc1cccs1
-10.2%	.	0.5%	3.6%	O=C1C(=O)N(CCCN2CCOCC2)C(c2ccc(F)cc2)/C1=C(\O)c1ccc2c(c1)OCCO2 (centres undefined)

# Three compounds drawn at random from the list so far, as already listed:
miR-21 reporter	GLA inh pH 4.5	Rango-impB inh	Rango release inh	SMILES
-16.1%	-3.8	-3.2%	-22.5%	CCSc1nnc(NC(=O)C2Cc3ccccc3CN2C(=O)c2ccco2)s1 (centres undefined)
1.4%	-9.9	3.4%	-4.7%	COc1ccc(N(C(=O)c2ccco2)S(=O)(=O)c2ccc(F)cc2)cc1
0.0%	.	-0.4%	-16.1%	Cc1cc(C)n(CC(=O)NNC(=O)C2CC(=O)N(Cc3ccccc3Cl)C2)n1 (centres undefined)

# Remaining list, next part.
miR-21 reporter	GLA inh pH 4.5	Rango-impB inh	Rango release inh	SMILES
-0.3%	-0.8	0.0%	?	CN1C(=O)N(C)C2(C)CC1(C)N(C)C(=O)N2C
-3.9%	2.1	8.1%	-8.2%	Cc1ccc(Cl)cc1-n1c(=O)cc(N2CC(C)OC(C)C2)[nH]c1=O (centres undefined)
-30.4%	.	6.0%	-9.4%	CCN(CC)C(=O)COCc1cc(-c2ccc3c(c2)OCO3)on1
-0.3%	1.4	?	-25.6%	COC(=O)C1=NN(c2ccc(OC)cc2)C2C(=O)N(c3ccccc3OC)C(=O)C12 (centres undefined)
-4.1%	-7.2	0.9%	-6.4%	CCOC(=O)c1c(N)c2cc([N+](=O)[O-])cnc2n1C
-23.2%	6.4	-1.0%	-4.2%	COc1cc(OC)cc(C(=O)NNC(=S)Nc2ccccc2OC)c1
3.5%&-5.0%	4.1	3.2%	-3.6%	COC(=O)NNC(=O)C1CCC(C)CC1 (centres undefined)
-7.7%	.	5.8%	5.2%	CCOC(=O)Cn1ncc2c3ccccc3n(CC(=O)OCC)c2c1=O
-20.0%	5.1	?	?	Cc1c(Cc2ccccc2)c(=O)oc2c(O)c(O)ccc12
-2.3%	-8.0	3.6%	0.6%	CCOc1ccc(Cl)cc1S(=O)(=O)N1CCCC1
6.3%	.	-0.6%	?	COc1ccccc1Oc1cn[nH]c1-c1ccc(O)cc1O
-4.7%	-8.9	-0.7%	-5.0%	O=C(Cn1nc(C(=O)O)c2ccccc2c1=O)Nc1ccc2c(c1)OCO2
?	3.2	?	-3.4%	O=C(/C=C/c1ccc(Br)cc1)c1ccc(NC2=NCCCS2)cc1
-6.9%	-3.0	-2.9%	-19.1%	O=C(c1ccc2c(=O)n3c(nc2c1)CCCCC3)N1CCc2ccccc21
-11.1%	2.5	?	-17.9%	Cc1cccc(S(=O)(=O)N2CN(Cc3ccco3)c3nc4ccccc4nc32)c1
-4.2%	8.0	-0.2%	27.8%	COc1ccc(CN(C(=O)c2ccco2)C2CC(C)N(C)CC2C)cc1 (centres undefined)
.	.	-1.9%	-15.4%	Cn1nc(C(=O)NNC(=O)c2ccc(Cl)c(S(N)(=O)=O)c2)c2ccccc2c1=O
-27.3%	1.8	?	-27.6%	C=C(C)CN(CC)c1nc(N)c(C#N)c(CC#N)c1C#N
6.8%	3.5	7.1%	-9.3%	Fc1cccc(F)c1-n1c(CN2CCCC2)csc1=S
-6.7%	.	5.8%	30.6%	Cc1ccccc1OCC(=O)Nc1nnc(C2CCCC2)s1
-7.2%	-10.0	0.0%	10.0%	COc1ccc(OC)c(S(=O)(=O)Nc2cc(Cl)cc(Cl)c2)c1
-3.9%	4.5	-1.4%	-3.7%	CC(C)N(C(=O)COC(=O)c1ccc(O)cc1)C(C)C
-2.8%	3.5	-1.5%	-7.6%	CC(C)c1nnc(NC(=O)CCC(=O)NC2CCCCCCC2)s1
-28.5%	-0.1	0.0%	-13.8%	COCc1nnc(NC(=O)c2cc(Cl)ccc2OC)s1
-3.0%	-2.5	?	0.6%	C/C(=N\NC(=O)CSCc1ccc([N+](=O)[O-])cc1)c1cccc(Br)c1
0.3%	3.1	-1.6%	1.4%	CCCC[N+](CC#CCO)(CC#Cc1ccccc1)CCCC

# These rows are one share of the data (hit frequency here may not be typical).
